# VDR inh: Inhibitors of the vitamin D receptor (VDR): qHTS; VDR-SRC2-3 peptide fluorescence polarization, 2 h; 400,000 tested, 0.93% active; Potency, µM, without a hit: max response, negative = inhibition, most hits filed as inhibitors; AID 504847, 2011; Vitamin D3 receptor (Homo sapiens), P11473; active = well fitted inhibition curve with a large enough effect; inconclusive = small, poorly fitted or top-dose-only effect, or another doubt; inactive = no such curve, though single readings can be large or run the other way; note: series mostly up to about 120 µM
# Target sequence (P11473 whole entry, looked up): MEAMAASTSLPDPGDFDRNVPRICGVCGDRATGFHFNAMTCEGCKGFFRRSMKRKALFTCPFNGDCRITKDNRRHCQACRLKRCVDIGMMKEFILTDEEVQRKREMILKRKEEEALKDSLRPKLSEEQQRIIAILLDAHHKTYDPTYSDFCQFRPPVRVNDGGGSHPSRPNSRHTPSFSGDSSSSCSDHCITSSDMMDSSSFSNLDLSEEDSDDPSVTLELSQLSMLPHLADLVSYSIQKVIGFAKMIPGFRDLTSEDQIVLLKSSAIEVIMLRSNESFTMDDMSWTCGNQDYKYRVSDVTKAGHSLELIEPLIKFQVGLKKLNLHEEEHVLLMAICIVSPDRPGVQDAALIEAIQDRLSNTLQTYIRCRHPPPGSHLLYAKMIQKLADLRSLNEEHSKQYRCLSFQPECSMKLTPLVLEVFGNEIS
#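 The screen uses fluorescence polarization to detect compounds that interfere with recruitment of the SRC2-3 coactivator peptide to VDR; plates are read after 2 h at room temperature.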
# * marks the source's active call; other numbers are inactive results; ? = inconclusive; & = joins results of further samples; [ ] = dose if it differs, or a comment. % is set by controls: 0 for no effect and ±100 for the full control effect; potency is the fitted concentration of half-maximal effect. These rows are one share of the data. The share of hits here may be higher or lower than overall.
SMILES,VDR inh
Cc1ccc(CN2CCCN(Cc3ccc(F)cc3Cl)S2(=O)=O)cc1,-15%
O=C(CN1CCN(Cc2ccccc2Cl)CC1)N/N=C/C=C/c1ccco1,5%
Cc1ccc(CN2CC(C(=O)Nc3ccncc3)CC2=O)cc1 (configuration not stated),0%
FC(F)(F)c1cnc2c(c1)Nc1ccccc1S2,4%
CCOC(=O)Cn1c(SC)nc2sc3c(c2c1=O)CC(C)(C)OC3,-6%
O=C(CCN1CCc2ccccc2C1)Nc1cccc(F)c1,25%
Cc1ccccc1OCC(=O)Nc1ccc(-c2nc3cc(Cl)cc(Cl)c3o2)cc1,0%
CCOc1cc(C2c3c(oc4ccccc4c3=O)C(=O)N2c2ccccn2)ccc1O (configuration not stated),-14%
C=CCNC(=S)Nc1nc2c(cc1C(=O)OCC)COC(C)(C)C2,-2%
CCOc1cccc2c1OC1(C)CC2NC(=O)N1c1cccc(C(=O)NCc2ccccn2)c1 (configuration not stated),-3%
COc1ccccc1N1CCN(c2ccc([N+](=O)[O-])nc2)CC1,2%
O=C(CCC(=O)N1CCOc2ccccc21)N1CCCCC1,-11%
O=C(NCC1CC1)c1cc(-c2ccccc2)nn1CC1CC(c2cccc([N+](=O)[O-])c2)=NO1 (configuration not stated),15%
Cc1ccc(S(=O)(=O)N2CCCOC2)cc1,-2%
c1cc2[nH]snc2c2nc(C3CC3)nc12,8%
COc1ccc(OC)c(S(=O)(=O)NCCc2cn3ccsc3n2)c1,-11%
COc1cccc(N(C(=O)CNC(=O)c2ccco2)C(C(=O)NC2CCCC2)c2cccnc2)c1 (configuration not stated),0%
Cc1ccc(C2/C(=C(/O)c3ccc4c(c3)CC(C)O4)C(=O)C(=O)N2CCCn2ccnc2)cc1 (configuration not stated),-30%
COC(=O)c1ccc(NC(=O)CN(c2cccc(C(F)(F)F)c2)S(C)(=O)=O)cc1,-6%
CC/C(CC(=O)C(F)(F)F)=N\NC(=O)/C(C#N)=C/N(C)C,9%

# A stretch taken from the entries so far:
SMILES,VDR inh
O=C(CN1CCN(Cc2ccccc2Cl)CC1)N/N=C/C=C/c1ccco1,5%
Cc1ccc(CN2CC(C(=O)Nc3ccncc3)CC2=O)cc1 (configuration not stated),0%
FC(F)(F)c1cnc2c(c1)Nc1ccccc1S2,4%
CCOC(=O)Cn1c(SC)nc2sc3c(c2c1=O)CC(C)(C)OC3,-6%
O=C(CCN1CCc2ccccc2C1)Nc1cccc(F)c1,25%
Cc1ccccc1OCC(=O)Nc1ccc(-c2nc3cc(Cl)cc(Cl)c3o2)cc1,0%
CCOc1cc(C2c3c(oc4ccccc4c3=O)C(=O)N2c2ccccn2)ccc1O (configuration not stated),-14%
C=CCNC(=S)Nc1nc2c(cc1C(=O)OCC)COC(C)(C)C2,-2%
CCOc1cccc2c1OC1(C)CC2NC(=O)N1c1cccc(C(=O)NCc2ccccn2)c1 (configuration not stated),-3%
COc1ccccc1N1CCN(c2ccc([N+](=O)[O-])nc2)CC1,2%
O=C(CCC(=O)N1CCOc2ccccc21)N1CCCCC1,-11%
O=C(NCC1CC1)c1cc(-c2ccccc2)nn1CC1CC(c2cccc([N+](=O)[O-])c2)=NO1 (configuration not stated),15%
Cc1ccc(S(=O)(=O)N2CCCOC2)cc1,-2%
c1cc2[nH]snc2c2nc(C3CC3)nc12,8%
COc1ccc(OC)c(S(=O)(=O)NCCc2cn3ccsc3n2)c1,-11%
COc1cccc(N(C(=O)CNC(=O)c2ccco2)C(C(=O)NC2CCCC2)c2cccnc2)c1 (configuration not stated),0%

# More results
SMILES,VDR inh
CCC/C(=N\NC(=O)C1CC1)c1ccc(Br)cc1,-3%
O=C(COC(=O)C1=COCCO1)Nc1ncc(C(F)(F)F)cc1Cl,-18%
O=C1NC(=O)C2(CCCc3ccccc32)N1 (configuration not stated),-15%
C/C(=N\NC(=O)c1nn(C)c(C)c1Br)c1cccc(NC(=O)c2ccc(F)cc2)c1,-6%
CCCOC(=O)Nc1cc(OC)c(Cl)cc1OC,8%
NC(=O)CSc1nnc(-c2cccc(S(=O)(=O)N3CCOCC3)c2)n1C1CCCCCC1,?
Cc1nnc(NC(=O)C2(c3ccccc3)CCOCC2)s1,-3%
CCc1ccc(NC(=O)c2cc(C)nn2-c2ccccc2)cc1,-1%&-9%
CC(CCc1ccc(O)cc1)NCCc1ccc(O)c(O)c1 (configuration not stated),-8%&-19%&13%&-3%
CC(=O)c1ccc(-c2nnc(CCC(=O)N(C)Cc3cccc4cnccc34)o2)s1,-16%
Cc1ccc(NC(=O)Nc2c(Cl)cccc2Cl)cn1,-13%
O=C(CSc1ccccc1)Nc1cccc(S(=O)(=O)N2CCCC2)c1,-15%
O=C(COc1ccccc1Br)N1CCN(C(=O)c2ccco2)CC1,-6%
COCCNC(=O)c1cc2n(n1)CCCN(Cc1ccc(C)cc1)C2=O,2%
COc1ccc(Cn2c(=O)sc3ccccc3c2=O)cc1,-4%
O=c1[nH]cnc2ccsc12,21%
Cc1cc(Cn2nc(-c3ccccc3C)cc2C(=O)O)on1,-4%
O=c1oc(/C=C/c2ccccc2)nc2ccccc12,-15%
CCOC(=O)c1ccc(NC(=O)N2CCN(c3ccccc3OC)CC2)cc1,-2%
Cc1cc2c(c(=O)n1Cc1cccnc1)C(c1ccccc1)C(C#N)=C(N)O2 (configuration not stated),18%
Cn1c(CN2CCCC2)c(C#N)c2ccccc21,-5%
COc1ccccc1OCc1nc(-c2ccc([N+](=O)[O-])cc2)no1,2%
CC(=O)c1ccc(OC(=O)C2CC(=O)N(c3cccc(C)c3)C2)cc1 (configuration not stated),?
COc1ccc(OCC(=O)NCCS(=O)(=O)N2CCN(c3cccc(Cl)c3)CC2)cc1,6%
Cc1ccccc1NS(=O)(=O)c1ccc(C(=O)NCC2(N3CCOCC3)CCCCC2)cc1,27%
O=C(Nc1ccc(S(=O)(=O)N2CCCCC2)cc1)c1ccc(F)cc1,1%
O/N=C/c1ccc(OCc2ccccc2)c(Br)c1,13%
Fc1ccc(C(OCCCc2cnc[nH]2)c2ccc(F)cc2)cc1,-9%
COc1ccc(/C=N/N2CCN(c3ccccc3OC)CC2)cc1OC,4%
COc1ccccc1CCC(=O)OCC(=O)c1c(N)n(CC(C)C)c(=O)n(C)c1=O,-16%
COc1ccccc1/C=C/C(=O)OCC(=O)Nc1cc(C(F)(F)F)ccc1N1CCOCC1,-17%
COc1ccc(C2C(C(=O)N3CCN(c4ccccc4)CC3)c3ccccc3C(=O)N2C)cc1OC (configuration not stated),1%
COc1ccccc1-c1noc(-c2ccc(NC(C)C)c([N+](=O)[O-])c2)n1,8%
CCN(CC(=O)Nc1ccccc1OC)C(=O)c1cccc(-n2cccc2)c1,-6%
COc1ccccc1NS(=O)(=O)c1cc(NC(=O)c2cccnc2)ccc1N1CCCCC1,-12%
COc1ccc(S(=O)(=O)NCCc2cc3ccc(C)c(C)c3[nH]c2=O)cc1,4%&-20%
Clc1ccc(-c2nnc(-c3cccc4ccccc34)o2)cc1Cl,7%
CCOC(=O)c1c(-c2ccc(OC)cc2)csc1NC(=O)CSc1ncnc2sccc12,-16%
C[C@H](CO)N1C[C@H](C)[C@@H](CN(C)Cc2ccncc2)Oc2c(NS(=O)(=O)c3ccc(Cl)cc3)cccc2C1=O,-5%
Cc1csc(NC(=O)c2ccc(C)c(S(=O)(=O)N3CCCCC3)c2)n1,10%
Cc1cc(C)c(C(N)=O)c(Nc2cccc3ccccc23)n1,7%
Cn1ccnc1SCC(=O)N1CCN(S(=O)(=O)c2ccccc2)CC1,19%
COc1ccc(C2=NN(C(=O)CSc3nnnn3C)C(c3ccco3)C2)cc1 (configuration not stated),1%
Cc1ccc(CN(C)C(=O)COC(=O)CSc2cc(C)c3ccccc3n2)cc1,-12%
O=C(NC(=S)Nc1ccccc1N1CCOCC1)c1ccc(-c2ccccc2F)o1,-11%
Cc1ccc(CCNC(=O)CCc2cn(Cc3ccccc3C)c3ccccc23)cc1,18%
CSCC[C@H](NC(=O)OC(C)(C)C)C(=O)N1CCC(C(=O)N[C@@H](C)C(=O)O)CC1,-9%
COC(=O)C1=C(c2ccccc2)c2ccccc2S(=O)(=O)N1CC(=O)Nc1cccc(C(C)=O)c1,10%
COc1cccc(N2CCN(S(=O)(=O)c3cc(Br)cc4c3N(C(=O)C3CC3)CC4)CC2)c1,-1%
CSc1cccc(NC(=O)Nc2ccccc2OCc2cc(=O)n3cc(C)ccc3n2)c1,0%
# (next part)
SMILES,VDR inh
c1ccc(OCCn2c(COc3ccccc3)nc3ccccc32)cc1,-11%
CCc1cc(C(=O)Nc2c(C)nn(Cc3ccc(C)cc3)c2C)no1,-1%
CC(C)(C)c1ccc(Oc2ccc(NC(=O)c3ccco3)cn2)cc1,-6%
O=C(NC(Cc1ccccc1)C(=O)O)/C(=C\c1ccco1)NC(=O)c1ccccc1 (configuration not stated),-16%
Cc1ccccc1OCCC(=O)N1CCN(S(=O)(=O)c2ccc(Br)cc2)CC1,13%
CC(=O)NN1C(=O)/C(=C\c2ccccc2)SC1=S,-11%
N#CC1=C(N)Oc2n[nH]c(-c3cccs3)c2C1c1cccs1 (configuration not stated),7%
CCCCCCc1ccc(OCC(=O)OC)cc1OCC(=O)OC,0%
CN1/C(=C\C(=O)COC(=O)c2ccc([N+](=O)[O-])o2)C(C)(C)c2ccccc21,-5%
CN(CC(=O)Nc1ccc(F)c(F)c1F)C(=O)CN1C(=O)C2CCCCC2C1=O (configuration not stated),13%
Cc1ccc(C2CC(c3ccccc3)=NN2C(=O)CSc2nnc(-c3ccc(Cl)cc3)o2)o1 (configuration not stated),0%
N#C/C(C(=S)Nc1ccccc1)=C1/NN=C(N2CCOCC2)N1c1ccccc1,10%
Cc1ccc(NC(=O)N/C=C/c2ccco2)cc1,-7%
COc1ccc(C(=O)Nc2nnc(SCc3cc(=O)n4cccc(C)c4n3)s2)cc1,19%
Cc1ccccc1C1N(c2nccs2)C(=O)C2CCCN21 (configuration not stated),-8%
Cc1ccc(C(=O)NC(NCc2ccccc2)C(Cl)(Cl)Cl)cc1 (configuration not stated),-17%
CSc1nnc2c3cc(C)ccc3n(Cc3ccccc3)c2n1,-14%
COc1ccc(-n2c(=O)c(C)nc3cnc(N4CCNCC4)nc32)cc1,-21%
CCOc1ccc(C(=O)Nc2ccc(N3CCN(C)CC3)cc2)cc1Br,9%
COc1ccc(Nc2cc(C)c3cc(NC(=O)c4cc(OC)cc(OC)c4)ccc3n2)cc1,-1%
CCc1ccc(/C(C)=N/NC(=O)c2ccccn2)cc1,-2%
CC1=NN(c2ccccc2)C(=O)C1c1ccccc1 (configuration not stated),-6%
O=C(CN1CCN(c2ccc(O)cc2)CC1)Nc1ccc2c(c1)OCCO2,-18%
Cn1c(CCCOc2ccc(Cl)cc2Cl)nnc1SCC(=O)Nc1cccc(F)c1,-1%
Cn1nc(C(=O)NCc2ccc(F)cc2)cc1C(=O)NCc1ccc(F)cc1,-2%
c1ccc(-c2nc3ccccn3c2NC2CCCC2)nc1,0%
Nc1nc(Nc2ccccc2F)sc1C(=O)c1ccccc1,2%
OCC1CCCN(Cc2cn(Cc3ccccc3)nc2-c2cc3ccccc3o2)C1 (configuration not stated),5%
CC(=O)Nc1ccc(Cl)cc1-c1ccccc1,-6%
COc1ccc2c(c1)[nH]c1c(=O)n(Cc3ccncc3)cnc12,-8%
O=C(CN(C(=O)c1csnn1)c1cccc2ccccc12)NCc1ccc(F)cc1,-11%
CC(C)C(=O)NN(C(=O)c1ccccc1)c1ccccc1,2%
CCN(C(=O)COC(=O)/C=C/c1nc2ccccc2s1)C1CCS(=O)(=O)C1 (configuration not stated),8%
Cc1ccc(Cn2cc(CCC(=O)NCc3ccc(OC(C)C)cc3)c3ccccc32)cc1,8%
COc1ccc2c(c1)O[C@@H](c1cccc(C(F)(F)F)c1)[C@H](OC(=O)N[C@H](C)C1CCCCC1)C2=O,12%
COc1ccc(CCn2c3c(c(=O)[nH]c2=S)CN(C(C)C)CN3)cc1OC,?
CCOC(=O)c1ccc(NC(=O)CCC2COc3ccccc3O2)cc1 (configuration not stated),3%
Cc1nnc(N/N=C/c2ccc(-c3ccccc3F)o2)n1N,5%
Cc1c(C(=O)NCc2ccccc2)oc2ccc(S(=O)(=O)N3CCC(C)CC3)cc12,-13%
O=C(NN=C(Cc1ccccc1)Cc1ccccc1)C1CC1,-4%

# The last 2 records of the section before open the next one.
SMILES,VDR inh
Cc1c(C(=O)NCc2ccccc2)oc2ccc(S(=O)(=O)N3CCC(C)CC3)cc12,-13%
O=C(NN=C(Cc1ccccc1)Cc1ccccc1)C1CC1,-4%
CCNc1nc(SCC(N)=O)nc2sc3c(c12)CCN(C)C3,-18%
COc1cc(/C=C2/SC(=S)N(c3ccccc3)C2=O)ccc1Oc1nc(N2CCOCC2)nc(N2CCOCC2)n1,14%
O=C(C1COc2ccccc2O1)N1CCN(Cc2ccc(Br)cc2F)CC1 (configuration not stated),7%
O=C(CSc1nnc(CNC(=O)c2cccc(F)c2)n1-c1ccccc1)Nc1ccccc1F,-3%
CCCCOc1ccc(C(O)(CCC)CCN2CCOCC2)cc1 (configuration not stated),-18%
Fc1ccc(-n2nnc(-c3cnc4ccccc4c3)n2)cc1,-23%
CCCOc1cccc(C(=O)N/N=C/c2coc3ccccc3c2=O)c1,?
O=c1c(-c2cccs2)nc2cnc(N3CCNCC3)nc2n1CCc1ccccc1,124%[activator]
CC(=O)c1cc(F)c(N2CCOCC2)cc1C,-5%
Cc1ccc2[nH]c3c(N4CCOCC4)ncnc3c2c1,-12%
CSc1ccc(S(=O)(=O)NC2CC2)cc1,-9%
COc1cc2c(=O)n(CCC(=O)NCC3CCCO3)c(=O)n(CC(=O)Nc3ccc(C)cc3C)c2cc1OC (configuration not stated),1%&-7%
C=C(C)Cn1c(SCCCO)nc2c1c(=O)[nH]c(=O)n2C,-17%
COc1cc(/C=C2/C(=O)ON=C2C)cc(Cl)c1O,89µM*
CC(C)(C)c1ccc(S(=O)(=O)N2CCC(Oc3ccc(-n4cnnn4)cc3)CC2)cc1,10%
Cc1ccc(/C=N/n2c(-c3cccnc3)n[nH]c2=S)s1,9%
COc1cccc(C(=O)Nc2ccc3ccccc3c2)c1,4%

# Bioassay records from PubChem BioAssay.
